# Compound activity as filed in PubChem.
# HNF4A DNA FP = change in binding of human HNF4 alpha to DNA. P41235. HNF4a-FITC DNA binding, fluorescence polarization, 1 h. activity change, % at 10 µM. 0.3% of 360,000 active. AID 1224865; in the data active means activity change above about 30%, passing the limit was not always enough;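 further: controls were the assay level and a saturating level of protein; the project sought stronger binding though the title names inhibitors; some compounds called inactive have numbers as strong as hits; positive values seem to mean higher polarization but the record does not say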
# ALR H2O2 inh = blocks human ALR sulfhydryl oxidase activity; AID 485317; 3.8% of 290,000 active; purified ALR, DTT oxidation, H2O2 HRP-luminol luminescence; inhibition, % (concentration not given with the values); P55789;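 active means mean and each replicate at 75% or more; inconclusive means only one of the two met; inactive means neither met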;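 further: stock transfer was 7.5 nL into about 7.5 µL; 0% = neutral wells and 100% = wells with inactivated enzyme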
# Target sequence (P55789 whole entry, looked up): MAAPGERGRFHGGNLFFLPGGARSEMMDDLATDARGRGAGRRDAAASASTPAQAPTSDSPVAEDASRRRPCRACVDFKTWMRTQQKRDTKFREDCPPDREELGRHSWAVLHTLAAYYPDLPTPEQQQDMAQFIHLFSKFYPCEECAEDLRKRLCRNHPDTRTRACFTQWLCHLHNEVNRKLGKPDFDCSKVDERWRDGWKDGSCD
# MLL AF4-AF9 inh = blocks AF4 peptide binding to human AF9; P42568; AlphaScreen, biotin-AF4 peptide binding to FLAG-AF9; inhibition, % at 10 µM; 0.47% of 350,000 active; AID 651704;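 active means every replicate reaching a set inhibition limit, whatever the replicate mean, cut at about 25% in these data; inconclusive means mean inhibition reaches that limit but some replicates miss it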;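 further: 0% = plate neutral control median and 100% = total signal loss; the record names both 10 and 1 µM as test concentration; the first replicate is given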
# Target sequence (P42568 whole entry, looked up): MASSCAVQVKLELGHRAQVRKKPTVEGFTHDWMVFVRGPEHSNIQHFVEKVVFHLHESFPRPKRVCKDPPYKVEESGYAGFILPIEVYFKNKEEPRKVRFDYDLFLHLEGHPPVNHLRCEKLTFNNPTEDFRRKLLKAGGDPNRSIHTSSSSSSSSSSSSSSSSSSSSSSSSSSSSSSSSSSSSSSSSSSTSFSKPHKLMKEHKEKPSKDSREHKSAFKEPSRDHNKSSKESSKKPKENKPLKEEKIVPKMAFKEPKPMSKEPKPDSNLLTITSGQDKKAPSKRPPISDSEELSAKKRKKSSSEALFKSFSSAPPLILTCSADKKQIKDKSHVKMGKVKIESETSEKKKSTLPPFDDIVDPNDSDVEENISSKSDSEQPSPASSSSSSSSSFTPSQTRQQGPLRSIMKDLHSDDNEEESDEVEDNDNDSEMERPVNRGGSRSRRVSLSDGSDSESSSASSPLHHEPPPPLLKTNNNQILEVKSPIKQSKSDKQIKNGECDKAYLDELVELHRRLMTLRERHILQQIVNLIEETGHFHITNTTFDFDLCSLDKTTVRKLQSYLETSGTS
# Vif TR-FRET = inhibitors of Vif binding to APOBEC3G peptide, primary screen, biochemical, TR-FRET, GST-Vif 1-94, biotin-A3G peptide, dose response retest (AID 1117319); inhibition, %, or IC50 in µM where a hit was titrated; TR-FRET GST-Vif / biotin-A3G peptide binding; higher % means a stronger effect; test concentration not given here; strong numbers were not always called active; 0.57% of 260,000 active;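 active means above the screen mean plus three standard deviations and confirmed in dose response; inconclusive means results disagree or hit not tested in dose response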;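 further: Vif residues 1-94 fused to GST binding biotinylated APOBEC3G peptide 110-148; 0% = full assay without inhibitor and 100% = GST in place of GST-Vif; retest series ran down from 100 µM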
# FGF22 binding = shifts melting point of recombinant human FGF22; recombinant FGF22 thermal shift, SYPRO orange fluorescence; percent of sucrose octasulfate shift, DMSO zero; calls only at 9.99 µM; Q9HCT0; 1.5% of 340,000 active;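 active means melting point raised past a set limit in the mean and every replicate; inconclusive means no clear call; three in four hits are not shown here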
# Target sequence (Q9HCT0 whole entry, looked up): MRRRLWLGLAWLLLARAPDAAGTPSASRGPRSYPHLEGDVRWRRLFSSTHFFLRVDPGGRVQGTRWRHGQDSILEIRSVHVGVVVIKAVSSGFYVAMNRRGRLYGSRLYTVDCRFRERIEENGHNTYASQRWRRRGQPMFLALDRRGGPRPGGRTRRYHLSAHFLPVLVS
# Ecoli growth = blocks Escherichia coli growth | 0.21% of 330,000 active | OD600 absorbance (concentration not given with the values) | OD600, 23 h; active compounds read low | AID 1053175;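 active means OD600 absorbance below the run mean of sample wells minus 3.6 SD, in any replicate, cut at about 0.56 in these data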;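 further: stock transfer was 300 nL into about 60 µL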
# Ecoli rRNA inh = selective bacterial rRNA inhibition in E. coli. 1.6% of 350,000 active. AID 720706. E. coli WT GFP vs humanized-ribosome RFP mutants, fluorescence, 24 h; active compounds read low; DMSO median 0, no signal -100. GFP signal change (wild-type ribosome), % (test concentration not listed);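 active means significant combined selectivity score with lowered wild-type GFP, culture density cut under 30%, mutant RFP and density less affected; inactive means any of these conditions unmet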; further: one replicate is shown; some compounds called inactive have numbers as strong as hits
# Ecoli rRNA inh OD600 = recorded beside Ecoli rRNA inh, whose call it bears; OD600 change, %; measured here: OD600 growth;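 optical density of the mix in the first replicate; 0 = DMSO median and -100 = no signal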
# Ecoli rRNA inh RFP = further read-out of Ecoli rRNA inh, marked with its call; RFP signal change, %; measured here: RFP humanized mutant strains;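 first replicate; 0 = DMSO median and -100 = no signal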
# Active calls of the source: *; i = inactive; ? = inconclusive; / = no result given; + = active, no number; & = joins results of further samples.
SMILES,HNF4A DNA FP,ALR H2O2 inh,MLL AF4-AF9 inh,Vif TR-FRET,FGF22 binding,Ecoli growth,Ecoli rRNA inh,Ecoli rRNA inh OD600,Ecoli rRNA inh RFP
CC(NC(=O)C12CC3CC(CC(C3)C1)C2)C(=O)N/N=C/C1=C(N2CCOCC2)C(=C\c2cccc([N+](=O)[O-])c2)/CC1 (centres undefined),0.9,1,/,23%,/,/,/,/,/
CC(NCc1ccncc1)C12CC3CC(CC(C3)C1)C2 (centres undefined),2.4,1,2.8,/,i,0.71,10,9,-2.0
O=C(c1ccc(CS(=O)Cc2ccc(Cl)cc2)o1)N1CCN(c2ccccc2)CC1 (centres undefined),-0.9,93*,3.6,/,i,0.69,-18,-27,-1.5
CCCCN1C(=O)C(=O)N(CC(=O)Nc2ccccc2C(=O)OCC)C1=O,-3.9,1,0.4,-5%,i,0.75,8,-1,4.9
C[C@H](NC(=O)C[C@H]1C[C@H]2c3cc(NC(=O)Nc4ccc(C(F)(F)F)cc4)ccc3O[C@H]2[C@@H](CO)O1)c1ccccc1,/,/,-1.9,/,i,/,3,15,-0.6
CCOC(=O)c1ccccc1NC(=O)c1cc(S(=O)(=O)N2CCOCC2)ccc1F,-4.0,-9,/,2%,/,0.73,/,/,/
CC(=O)c1ccc(-n2c(CCC(=O)O)ccc2-c2ccc(Cl)cc2)cc1,-3.1,9,0.2,-9%,i,0.71,1,-5,0.0
Cc1cc(C(=O)Nc2nnc(C3CCCCC3)s2)no1,0.2,86*,/,0%,/,0.68,/,/,/
CCOc1ccc(C2/C(=C(\O)c3cccc(OC)c3)C(=O)C(=O)N2c2cc(C)on2)cc1OC (centres undefined),-0.6,6,/,13%,/,/,/,/,/
CC=Cc1ccc2n(c1=O)C[C@H]1[C@H](CO)[C@@H](C(=O)N(C)C)[C@@H]2N1CC1CCCCC1 (mixture of isomers),/,/,-1.1,/,i,/,-1,-10,-0.3
COc1ccccc1NC(=S)N(CCCN1CCOCC1)Cc1cccs1,0.5,9,-1.4,-7%,i,0.67,4,-2,2.8
O=C(NCc1cccnc1)c1c[nH]c2cc3c(cc2c1=O)OCCO3,1.1,-1,/,-2%,/,0.67,/,/,/
CC1CCCCC1NC(=O)CN(C)S(=O)(=O)c1cccc2cccnc12 (centres undefined),2.4,-2,-1.4,-3%,i,0.66,-14,-13,-0.1
Cc1nnc(NC(=O)CS(=O)(=O)Cc2ccccc2)s1,1.4,/,-0.7,/,i,0.67,6,11,2.1
COc1cccc(NC(=O)CSc2nc3ncc(Br)cc3[nH]2)c1,2.5,0,-3.1,-14%,i,0.66,2,-1,0.2
CN(C(=O)CN1C(=O)NC(c2ccccc2)(c2ccccc2)C1=O)C1CCS(=O)(=O)C1 (centres undefined),2.1,-1,-0.3,-5%,/,0.7,6,10,-2.4
C/C=C/c1ccc([C@H]2[C@@H](CO)N(C(C)=O)C23CN(S(C)(=O)=O)C3)cc1,/,/,0.8,/,i,/,2,4,-2.7
CCOC(=O)N1CCN(C(=O)CN2C(=O)CC(C)(C)S(=O)(=O)c3ccccc32)CC1,0.5,/,/,-1%,/,0.67,/,/,/
COc1ccccc1S(=O)(=O)N[C@H]1C=C[C@@H](CC(=O)NCc2cc(F)cc(F)c2)O[C@H]1CO,/,/,-2.0,/,i,/,-1,1,0.3
O=S(=O)(NCCc1ccc(F)cc1)c1ccc(F)cc1Br,-1.3,/,-0.3,-6%,i,0.69,-47,-67,-10
COc1cc2c(cc1OC)CN(C1CCC(C(C)(C)C)CC1)CC2 (centres undefined),0.2,/,6.3,/,i,/,2,-8,1.2
N#Cc1c2c(c[nH]c1=O)CCN2Cc1ccccc1,0.3,/,/,?,/,0.67,/,/,/
COc1ccc(C(=O)CSc2nccn2C)cc1,0.3,99*,-0.3,/,i,0.65,6,8,1.3
COCC(=O)N1C[C@@H](C)[C@@H](OC)CN(C)C(=O)c2cc(NC(=O)NC(C)C)ccc2OC[C@H]1C,/,/,5.4,/,i,/,1,2,-0.6
COc1ccc(S(=O)(=O)N(C)CC(=O)Nc2cccc(C(C)=O)c2)cc1Cl,-1.1,-2,/,1%,/,0.74,/,/,/

# The listing continues.
SMILES,HNF4A DNA FP,ALR H2O2 inh,MLL AF4-AF9 inh,Vif TR-FRET,FGF22 binding,Ecoli growth,Ecoli rRNA inh,Ecoli rRNA inh OD600,Ecoli rRNA inh RFP
O=C(Nc1ccc2oc(-c3ccccc3F)nc2c1)c1ccc([N+](=O)[O-])o1,3.0,-23,-2.9,-5%,i,0.67,5,0,-3.6
NC(=O)CSc1nc2c(sc(=S)n2-c2ccccc2)c(=O)[nH]1,0.0,-8,2.9,-5%,i,0.69,3,-2,1.4
CC(C)(C)N1CC23CCC(C[C@@H]2C1=O)O3 (some centres undefined),-5.3,-8,-3.1,/,i,/,5,3,-0.4
Cc1ccsc1CNC1CCCCC1,-1.2,0,-4.0,/,i,0.73,7,13,2.8
C/C=C/c1cnc2c(c1)C(=O)N([C@@H](C)CO)C[C@@H](C)[C@H](CN(C)S(=O)(=O)c1ccccc1)O2,/,/,1.0,/,i,/,-6,-2,-2.2
O=C(N/N=C/c1ccc(Cl)cc1)c1nc2ccc([N+](=O)[O-])cc2c(=O)[nH]1,-5.5,/,0.4,21%,i,/,3,13,-0.9
CO[C@H]1CN(C)C(=O)c2ccc(NC(C)=O)cc2OC[C@H](C)N(C(=O)c2ccc(F)cc2)C[C@H]1C,/,/,-0.4,/,i,/,-2,-2,2.6
Cc1nc2ccccc2nc1CN1CCN(Cc2ccc(F)c(F)c2)C(CCO)C1 (centres undefined),5.9,-5,-0.9,7%,i,0.65,3,0,-2.0
CCc1c(C)sc(NC(=O)c2cccs2)c1C(=O)OC(C)C,-1.3,-19,/,-3%,/,0.72,/,/,/
CC(=O)c1cccc(N(CC(=O)Nc2ccccc2F)S(C)(=O)=O)c1,-0.8,-27,1.1,-4%,i,0.69,10,4,1.3
CC1CCN(C(=O)c2ccc3c(c2)NC(=O)/C(=C/c2ccccc2)S3)CC1,0.6,-37,2.8,/,i,0.7,-20,-53,15
Cc1cc(NC(=O)NCC(F)(F)F)no1,3.0,-2,/,2%,i,0.7,8,6,0.2
CCOc1ccc(C(=O)N2CCN(CC(=O)N3CCCC3)CC2)cc1OCC,1.1,/,0.2,/,i,0.71,10,10,1.4
COCC(=O)N1CC(=O)N2[C@@H](CO)[C@@H](c3ccc(C#CC4CC4)cc3)[C@@H]2C1,/,/,-2.1,/,i,/,-3,-9,-0.8
CCCn1c(=NC(=O)c2ccco2)c(C(=O)OCC)cc2c(=O)n3ccccc3nc21,0.4,0,/,14%,/,0.71,/,/,/
CCCOc1c(Cl)cc(/C=N/O)cc1OCC,-1.2,-1,/,0%,/,/,/,/,/
O=C(c1scc2c1CCCC2)N1CCCCC1,1.4,-20,/,1%,/,0.71,/,/,/
Cc1cccc(NS(=O)(=O)c2cccc(C(=O)NCCCN3CCOCC3)c2)c1,3.1,0,7.4,1%,/,0.68,4,6,4.0
CC(C)CC(=O)Nc1nnc(CSCc2ccc(F)cc2)s1,-0.5,-15,0.6,-9%,i,0.67,13,14,4.1
CCNC(=O)C[C@H]1CC[C@@H]2[C@@H](COc3ccc(NC(=O)c4cccs4)cc3C(=O)N2C)O1,/,/,0.4,/,i,/,-4,-1,-2.4
Cc1csc(SCC(=O)Nc2cc(S(=O)(=O)N3CCOCC3)ccc2N2CCOCC2)n1,7.0,-1,-7.8,/,i,0.68,1,7,0.0
COCCCNC(=O)C1CCN(C(=O)c2cc3sccc3n2Cc2ccc(F)cc2)CC1,-0.2,/,/,2%,/,0.72,/,/,/
O=C(COC(=O)c1c(F)cccc1F)Nc1ccc(N2CCCCC2)cc1,-0.2,/,4.3,/,i,0.68,2,2,4.3
CCNC(=O)C1(C)CCCN(C(=O)c2cc(-c3ccccc3)cs2)C1 (centres undefined),4.4,/,-3.4,/,i,/,0,1,-1.4
CCCCN1CC(=O)N2[C@H](c3ccc(Cl)cc3)[C@@H]3C(=O)N(CC)C(=O)[C@@H]3[C@]2(Cc2ccccc2)C1=O,-1.1,-1,2.3,/,i,/,5,7,-4.3

# A different layout for some results above:
Structure | HNF4A DNA FP | ALR H2O2 inh | MLL AF4-AF9 inh | Vif TR-FRET | FGF22 binding | Ecoli growth | Ecoli rRNA inh | Ecoli rRNA inh OD600 | Ecoli rRNA inh RFP
Cc1cc(NC(=O)NCC(F)(F)F)no1 | 3.0 | -2 | / | 2% | i | 0.7 | 8 | 6 | 0.2
CCOc1ccc(C(=O)N2CCN(CC(=O)N3CCCC3)CC2)cc1OCC | 1.1 | / | 0.2 | / | i | 0.71 | 10 | 10 | 1.4
COCC(=O)N1CC(=O)N2[C@@H](CO)[C@@H](c3ccc(C#CC4CC4)cc3)[C@@H]2C1 | / | / | -2.1 | / | i | / | -3 | -9 | -0.8
CCCn1c(=NC(=O)c2ccco2)c(C(=O)OCC)cc2c(=O)n3ccccc3nc21 | 0.4 | 0 | / | 14% | / | 0.71 | / | / | /
CCCOc1c(Cl)cc(/C=N/O)cc1OCC | -1.2 | -1 | / | 0% | / | / | / | / | /

# The list goes on:
SMILES,HNF4A DNA FP,ALR H2O2 inh,MLL AF4-AF9 inh,Vif TR-FRET,FGF22 binding,Ecoli growth,Ecoli rRNA inh,Ecoli rRNA inh OD600,Ecoli rRNA inh RFP
CCNC(=O)C1CC(=O)N(c2ccc(Br)cc2)C1 (centres undefined),17,-6,/,0%,/,0.76,/,/,/
Cc1cccc(NC(=O)Nc2ccc(S(N)(=O)=O)cc2)c1,5.2,7,/,-2%,+,0.63,-3,-5,0.3
Cc1onc(-c2ccccc2)c1-c1csc(N/N=C/c2ccccc2Cl)n1,1.4,1,3.4,3%,i,/,/,/,/
COC(=O)[C@]12C[C@H](CC(=O)NCCc3ccccc3OC)C(=O)N(CCC3=CCCCC3)C1=C[C@H](C(C)(C)C)O[C@@H]2C,/,/,-8.1,/,i,/,12,8,1.3
Cc1ccc(S(=O)(=O)Nc2ccc3c(c2)C(=O)N([C@H](C)CO)C[C@H](C)[C@@H](CN(C)Cc2ccccc2)O3)cc1,6.4,-3,0.6,/,i,0.73,-3&-2,-14&8,2.9&-0.4
O=C(CN1CCOCC1)N[C@@H]1CC[C@@H](CCNC(=O)C2CCCC2)O[C@H]1CO,/,/,2.6,/,i,/,1,9,-0.3
Cc1ccc(C(C)C)c(OCCNC(=O)c2ccccc2O)c1,0.7,/,0.7,-5%,i,0.62,2,-28,4.0
COc1ccc(CCNC(=O)c2c(N)no[n+]2[O-])cc1OC,1.6,-20,-2.8,-5%,/,0.7,9,11,0.4
O=C(NCc1ccccc1)C1=C[C@@H](c2ccc(Br)cc2)C[C@@H](OCc2ccc(CO)cc2)O1,1.4,-9,-1.5&2.7,29%,i,0.85,-6,9,36
Cc1cc2ccccc2n1CCNC(=O)C(C)C,-5.8,-33,-6.1,10%,i,0.65,-2,5,43
CCCCNC(=O)C(=O)N/N=C/c1ccc(C(=O)OC)cc1,-2.4,-3,-0.2,13%,i,/,7,11,0.9
O=C(Nc1cccc(O)c1)c1cccc(S(=O)(=O)N2CCCCCC2)c1,4.0,/,-6.4,-6%,i,0.71,-12,-9,3.0
Nc1cc(=O)[nH]c(SCC(=O)NC2CCCCCCC2)n1,3.5,-3,-1.3,13%,i,0.68,/,/,/
Cc1cc(=O)n2[nH]c(SCc3ccc(Cl)cc3)nc2n1,32,7,-2.8,/,i,0.66,/,/,/
COc1ccccc1-n1c(C)nc2cc(C(=O)NCc3ccc4c(c3)OCO4)ccc21,6.9,9,/,/,/,0.7,/,/,/

# Only part of the results is shown. The share of hits here may be higher or lower than overall.
